MenB inh: Mtb MenB enzyme inhibition; MenB enzyme assay, absorbance read-out; some hits fall short of the stated cut; inhibition, %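 (about 12 µg/mL by stock and volumes)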; hit rate 0.43% among 100,000;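 active = mean of two replicates above 30%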;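 also: 0% = no compound and 100% = wells with inactive enzyme; the first replicate is given; strong numbers were not always called active; inactives centre near -10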
Target sequence (P9WNP5 whole entry, looked up): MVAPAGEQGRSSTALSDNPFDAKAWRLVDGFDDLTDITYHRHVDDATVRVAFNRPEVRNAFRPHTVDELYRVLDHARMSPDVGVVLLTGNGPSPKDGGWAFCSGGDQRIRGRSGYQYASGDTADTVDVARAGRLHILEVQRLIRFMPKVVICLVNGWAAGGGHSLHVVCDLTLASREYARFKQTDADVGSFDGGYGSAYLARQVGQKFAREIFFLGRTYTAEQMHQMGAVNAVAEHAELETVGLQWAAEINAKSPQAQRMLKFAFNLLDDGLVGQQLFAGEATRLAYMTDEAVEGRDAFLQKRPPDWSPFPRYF
MbtI inh: blocks the Mycobacterium tuberculosis siderophore enzyme MbtI | P9WFX0 | purified MbtI enzyme, fluorescence intensity read-out | inhibition, %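 (about 17 µg/mL by stock and volumes)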 | hit rate 0.89% among 100,000 | AID 493033;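 active = above 50% in both replicates, above 80% if mildly self-fluorescent; inactive = the rest, strongly fluorescent compounds included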;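 also: 0% = mean of negative and 100% = mean of positive controls; one replicate is shown; some compounds called inactive have numbers as strong as hits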
Target sequence (P9WFX0 whole entry, looked up): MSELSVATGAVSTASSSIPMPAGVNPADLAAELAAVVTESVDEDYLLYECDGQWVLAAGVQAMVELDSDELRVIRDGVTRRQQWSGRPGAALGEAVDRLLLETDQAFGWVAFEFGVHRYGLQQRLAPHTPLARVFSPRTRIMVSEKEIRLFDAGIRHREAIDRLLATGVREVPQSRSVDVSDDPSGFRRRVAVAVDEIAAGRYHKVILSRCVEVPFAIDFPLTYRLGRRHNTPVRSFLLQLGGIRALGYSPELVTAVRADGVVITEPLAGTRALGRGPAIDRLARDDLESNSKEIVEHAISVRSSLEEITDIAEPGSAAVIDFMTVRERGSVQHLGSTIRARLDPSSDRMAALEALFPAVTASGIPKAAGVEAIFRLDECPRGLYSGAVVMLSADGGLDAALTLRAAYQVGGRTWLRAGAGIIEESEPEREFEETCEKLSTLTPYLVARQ
Polio RdRp inh: poliovirus RNA polymerase inhibition | P03300 | poliovirus polymerase elongation, fluorescence polarization; stronger effect = lower value | % elongation, % (compound at 16.7 µg/mL) | hit rate 0.66% among 150,000 | AID 588519; in the data active = % elongation below about 90%; also: some results filed as inactive read as strong as hits
Polio RdRp inh intensity: recorded beside Polio RdRp inh, whose call it bears; % elongation; measured here: total intensity read-out; formula for this scale not given here;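 total fluorescence in place of polarization; lower means less elongation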
The depositor's hits bear a star; i = inactive; x = no result given; & = joins results of further samples. Hits appear at their usual frequency. Share with any hit: about 1.7%.

SMILES	MenB inh	MbtI inh	Polio RdRp inh	Polio RdRp inh intensity
CCOC(=O)c1[nH]c(CN(C)Cc2nc3ccccc3c(=O)[nH]2)c(C(=O)OCC)c1C	-4	3	106	99
CCCCc1ccc(NC(=O)c2c(Cl)nc3sccn23)cc1	-10	-3	101	107
CC1(C)CC(=O)C2=C(C1)OC(N)=C(C#N)C2c1ccoc1 (configuration not stated)	-4	x	104	100
O=C1C=C2C=CC3CC2(O1)C1CCCCN31 (configuration not stated)	15	2	97	103
Nn1c(COc2ccc(F)cc2)n[nH]c1=S	-37	50	107	108
CCOc1ccc(N=CC=C2OC(C)(C)C(C)(C)O2)cc1	-35	3	103	104
CCc1ccc(NC(=O)Cn2cnc3c(cnn3-c3ccccc3)c2=O)cc1	-1	17	101	104
COc1ccc2c(c1OC)C(=O)OC2NC(=O)c1cnn(-c2ccccc2)c1N (configuration not stated)	-33	9	102	97
COC(=O)C1=C(C)NC(=S)NC1c1cc2c(cc1Br)OCO2 (configuration not stated)	-22	12	103	98
Fc1ccccc1N1CCN(c2nc(CN3CCOCC3)nc3sc4c(c23)CCCC4)CC1	7	2	92	148
COc1cc(CO)ccc1Oc1nnnn1-c1ccc(C(N)=O)cc1	0	-11	104	108
CN=C(C)/C(C(=O)OC)=C(/O)c1ccc(Cl)cc1Cl	-47	4	105	110
CCCNC(=O)C12CC3CC(C1)CC(C(=O)NCCC)(C3)C2	x	-6	104	104
O=c1cc(-c2ccccc2)nc(N2CCc3ccccc32)[nH]1	2	-13	100	101
O=C(NC1CCCCC1)Oc1cc2oc(=O)sc2cc1Cl	-55	16	98	99
COCCNC(=O)c1ccc(CN2CCOCC2)cc1	-52	-16	102	103
CN(C)c1ccc(NC(=O)c2c3c(nc4ccccc24)CCCC3)cc1	x	-10	100	96
O=C(O)c1c(CN2CCN(c3ccccc3)CC2)c(O)c2ccccc2c1O	-28	0	86*	84*
CCOC(=O)/C=C(\C)Nc1cccc(N/C(C)=C/C(=O)OCC)c1C	-13	-11	103	111
N#Cc1c(-c2ccccc2)[nH]c(=S)[nH]c1=O	-37	0	100	99
CCCCNC(=O)c1cn(C2CCCC2)c(=O)c2c1c1ccccc1n2C	-10	-9	102	102
O=C(O)c1cnn2c(-c3ccccc3)ccnc12	-51	9	103	103
Fc1cnc(Nc2ccccc2)nc1N1CCOCC1	-4	x	104	109
c1ccc(CC2CCN(Cc3nnc(-c4ccccc4)o3)CC2)cc1	-26	-8	105	111
c1ccc(-c2csc(NC3CCCCC3)n2)cc1	-50	79	84*	86*
Cc1cccc(-c2nc(C#N)c(NCC(C)C)o2)c1	-19	i	101	103
O=C1Nc2ccc(S(=O)(=O)N3CCCC3)c3cccc1c23	-26	21	103	105
CC1(C)CC(=O)c2cc(-c3ccccc3)n(-c3ccc(S(N)(=O)=O)cc3)c2C1	-20	x	101	109
CC(C)c1ccc(NC(=O)Cc2nn(C)c(=O)c3ccccc23)cc1	-84	-8	104	99
Cc1ccc(N2C(=O)C3ON(c4ccccc4)C(c4ccco4)C3C2=O)cc1 (configuration not stated)	-4	-8	102	100
Cn1c(=NC(=O)C2CC(=O)N(c3ccc4c(c3)OCCO4)C2)sc2ccccc21 (configuration not stated)	-29	0	99	106
COc1ccc(C#N)cc1	-15	-9	105	110
CC1(C)CC(=O)C2=C(C1)Nc1ccccc1N(C(=S)Nc1cccc(Cl)c1)C2c1ccco1 (configuration not stated)	-5	x	97	103
CCN(CC)S(=O)(=O)c1ccc2oc(SCC(=O)c3cc4ccccc4o3)nc2c1	-20	-2	103	110
CC1=C(C(=O)NCc2ccccc2)C2(CCCCCC2)OC1=O	-18	-2	101	101
O=C(O)c1cc(S(=O)(=O)NN(Cc2ccccc2)c2ccccc2)ccc1O	0	-5	104	109
CN(C(=O)/C=C/c1cccs1)c1ccccc1	-15	3	99	102
COC(=O)c1sccc1NC(=O)Nc1ccccc1F	-28	-80	102	103
CCCCNC(=O)c1cc(=O)[nH]c2ccc(S(=O)(=O)N3CCC(C)CC3)cc12	5	11	99	103
CC(=O)N1CCC(C(=O)Nc2ccccc2)(N(Cc2ccccc2)C(=O)c2cccnc2)CC1	3	54	104	104
O=C(O)CCc1ccc(-c2ccccc2)n1Cc1ccco1	-16	88	101	103
Cc1cccc(Nc2nnc(SCC(=O)Nc3cc(Cl)ccc3C#N)s2)c1	-38	-2	104	97
O=c1c2ccccc2nc2n1CCS2	-18	-22	104	102
Cn1c(C2CCCCC2)nc2ccccc21	28*	1	102	99
Cc1nc2c3ccccc3nc(NNC(=O)CCC(=O)NC3CCCC3)n2n1	2	0	100	103
CN(C)C(CNC(=O)Cn1cnc2ccccc2c1=O)c1ccccc1 (configuration not stated)	5	16	103	106
COC(=O)CNC(=O)c1cc2c(=O)oc3ccccc3c2s1	-3	32	103	108
CC1(C(=O)O)CCC(c2nc3c4ccccc4ncn3n2)C1(C)C (configuration not stated)	6	-12	99	107
COc1ccc(S(=O)(=O)N2CCN(C(=O)c3cc4c(s3)CCC4)CC2)cc1	-31	-8	97	103
CC(=O)Nc1ccc(C(=O)COc2ccc(-c3nnco3)cc2)cc1	-13	-18	109	111
CSc1ccc(N=CN2C(=O)c3ccccc3C2=O)cc1	-33	x	105	107
C[N+](C)(C)CCNC(=O)c1ccc(/C=N/O)nc1	5	2	100	103
COc1ccc(C2CC(SCC(=O)Nc3ccccc3)=Nc3ncnn32)cc1 (configuration not stated)	-28	76	100	102
O=C(NCc1ccccc1)C1Sc2nnc(-c3ccccc3)n2NC1c1ccc(F)cc1 (configuration not stated)	-16	0	104	106
O=C1c2cccc3cccc(c23)C(=O)N1c1ccncc1	25	88	101	101
COc1cc(/C=N/n2c(C)nc3c(ncn3-c3ccccc3)c2=O)cc(OC)c1OC	14	-6	104	108
O=C(OCCN1C(=O)c2ccccc2C1=O)c1cccc(S(=O)(=O)N2CCCCC2)c1	-36	-2	103	99
CN(C(=O)COC(=O)c1cccc(F)c1)c1ccccc1	-24	-5	97	98
CC(=O)SCCC(=O)N1C(C)CCCC1C(=O)O (configuration not stated)	4	0	101	105
CC1(C)CC(NC(=O)c2ccco2)CC(C)(C)N1	x	-4	103	98

Additional structures.
SMILES	MenB inh	MbtI inh	Polio RdRp inh	Polio RdRp inh intensity
CN(C)/C=C(/C(=O)c1ccccc1)c1nc2ccccc2[nH]1	-28	3	104	108
O=C(NC1CC1)c1cc(-n2cnnc2)ccc1Cl	-89	-6	103	105
CCOc1ccc(-c2cc(C(=O)N3CCOCC3)c3c(-c4ccc(C)cc4)[nH]nc3n2)cc1	9	-27	103	102
CC(=O)Nc1ccc(NC(=O)c2ccnn2C)cc1	-13	7	100	95
O=C(Nc1ccccc1)c1ccncc1	11	3	102	103
O=C(Nc1ccc2c(c1)OCO2)c1cccc2c1C(=O)N(Cc1cccnc1)C2	-11	-8	103	103
O=C(NCC1CCCCC1)c1cccnc1	0	-11	100	101
Cc1nn(-c2ccccc2)c(C)c1CCC(=O)OCc1ccc(C#N)cc1	-24	104	101	100
Cc1cc(Br)ccc1NC(=O)c1cc2c(s1)-c1ccccc1OC2	-43	137	102	106
C=CCN1C(=O)c2ccc(C(=O)Nc3ccc(F)cc3)cc2C1=O	-34	9	100	105
COC(=O)C1=C(NC(=O)c2ccccc2F)CCS1	2	-3	100	104
CCOC(=O)C12C(=O)OC(C)(C)C1C2(C)C(=O)c1ccc(Br)cc1 (configuration not stated)	-14	x	104	102
O=C1CC2(CCCC2)C(=O)N1CCc1cccs1	-5	-13	105	110
Cc1nc2ccc(NC(=O)c3cccc(S(C)(=O)=O)c3)cc2s1	-22	3	105	102
Cc1cc(C)cc(NC(=O)N2CCC(NC(=O)C3CCCCC3)CC2)c1	-28	-13	102	102
Cc1cccc(C)c1OC(=O)CN1C(=O)c2ccccc2C1=O	-19	8	102	90
CS(=O)(=O)Nc1ccccc1C(=O)OCC(=O)NC1CC1	-13	-30	106	96
Cn1c(=O)[nH]c(=O)c2c1nc1n2CCN1Cc1ccco1	-12	2	102	101
CN1CCN(CCNC(=O)Cn2ncc3c4ccccc4n(Cc4ccc(F)cc4)c3c2=O)CC1	-13	4	103	102
COC(=O)c1sc(N)c(C(=O)OC)c1COC(=O)c1cc(S(N)(=O)=O)ccc1OC	-12	6	x	x
CSc1ccccc1NC(=O)CN(C)C(=O)C1CCCCC1	-9	4	101	107
O=C(/C=C/c1ccco1)Nc1ccc2ccccc2c1	-25	78	104	105
O=c1c2ccccc2nc2n1CCN2Cc1ccccc1	-18	93	104	102
Cc1sc2nc(C(C)Sc3nnc(-c4cccs4)n3-c3ccccc3)[nH]c(=O)c2c1C (configuration not stated)	7	9	100	102
NC(=O)c1cc2ccccc2o/c1=N\O	-34	x	104	108
Cc1cc(-c2c(O)c3ccccc3n(C)c2=O)no1	-15	x	101	96
c1ccc(C2Oc3ccccc3C3CC(c4ccco4)=NN32)cc1 (configuration not stated)	-10	5	119	137
CC(Sc1nnc(-c2ccccc2)o1)C(=O)NCCC1=CCCCC1 (configuration not stated)	-10	16	106	106
COc1ccccc1C(C)NC(C)C(=O)c1c(N)n(C)c(=O)n(C)c1=O (configuration not stated)	11	7	106	105
CC(C)CNC(=O)c1ccc(Br)o1	-11	x	104	100
CC(=O)Nc1sc(C)c(C)c1C(=O)O	x	16	99	102
Cc1c2ccncc2c(C)c2c1[nH]c1ccccc12	-7	i	91	104
Cc1ccc(CSc2nc3ccccc3c(=O)n2Cc2ccccc2)cc1	-45	-5	105	106
O=S(=O)(NC1=NCCC1)c1cccs1	4	-3	101	108
Cc1nn(CC(=O)NC2CCCc3ccccc32)c(=O)c2cc3occc3n12 (configuration not stated)	-3	-5	96	107
CN(Cc1ccccc1)C(=O)c1nc(-c2cccnc2)no1	-12	-9	104	107
O=C(COC(=O)Cc1cccs1)Nc1ccc(F)c(F)c1F	x	-3	102	95
CC(OC(=O)c1ccccc1NS(C)(=O)=O)C(=O)NC1(C#N)CCCCC1 (configuration not stated)	-14	-36	105	107
Clc1cccc(OCc2nc3ccccc3o2)c1Cl	-3	21	99	96
CC(C)Cn1cc(NC(=O)N(C)C2CCCCC2)c2ccccc2c1=O	-53	-7	103	103

Looked up by compound from the list above, five records:
SMILES	MenB inh	MbtI inh	Polio RdRp inh	Polio RdRp inh intensity
NC(=O)c1cc2ccccc2o/c1=N\O	-34	x	104	108
Cc1sc2nc(C(C)Sc3nnc(-c4cccs4)n3-c3ccccc3)[nH]c(=O)c2c1C (configuration not stated)	7	9	100	102
CC(C)Cn1cc(NC(=O)N(C)C2CCCCC2)c2ccccc2c1=O	-53	-7	103	103
CC(=O)Nc1sc(C)c(C)c1C(=O)O	x	16	99	102
Cc1nn(CC(=O)NC2CCCc3ccccc32)c(=O)c2cc3occc3n12 (configuration not stated)	-3	-5	96	107

One compound at a time, as listed above:
Record of `Cc1cccc(C)c1OC(=O)CN1C(=O)c2ccccc2C1=O` : MenB inh: -19; MbtI inh: 8; Polio RdRp inh: 102; Polio RdRp inh intensity: 90
Record of `O=C1Nc2ccc(S(=O)(=O)N3CCCC3)c3cccc1c23` : MenB inh: -26; MbtI inh: 21; Polio RdRp inh: 103; Polio RdRp inh intensity: 105
Record of `COc1ccc(C#N)cc1` : MenB inh: -15; MbtI inh: -9; Polio RdRp inh: 105; Polio RdRp inh intensity: 110

The list goes on:
SMILES	MenB inh	MbtI inh	Polio RdRp inh	Polio RdRp inh intensity
O=C(O)COc1ccccc1/C=N\n1cnnc1	-3	-38	103	105
COc1ccc(-c2nnc3sc(NC(=O)C(C)C)nn23)cc1	6	1	102	104
CSC1=NCCN1C(=O)c1ccc(Br)cc1	-31	-4	102	106
CCC(C)NC(=O)Cn1ncc2c1-c1ccccc1OC2 (configuration not stated)	-8	3	100	102
COc1ccc(C(NC(=O)/C=C\c2ccco2)c2cc(OC)c(OC)cc2Br)cc1OC (configuration not stated)	-13	26	98	101
Cc1cccc(N(C)C(=S)Oc2ccc3ccccc3c2)c1	-8&2	-6&-15	102&100	100&99
CC(=O)NC1C(=O)N=C(SCC(=O)Nc2cccc(Cl)c2)NC1=O (configuration not stated)	1	3	99	100
CN(C(=O)COC(=O)c1ccc(CN2CCCC2=O)cc1)c1ccccc1	-8	26	100	101
c1ccc(NCC2COc3ccccc3O2)nc1 (configuration not stated)	-20	x	99	100
Cc1ccc(C(=O)N/C(=C/c2ccco2)C(=O)Nc2ccc(C(=O)O)cc2)cc1	-2	19	102	105
CCN(CC)S(=O)(=O)c1cc(Br)ccc1OC	-15	-21	100	100
CC(C)(C)OC(=O)CSc1nc2ccccc2o1	4	7	103	104
CCCC/C(O)=C/c1nc2ccccc2[nH]c1=O	-35	16	97	91
CCN(CC(N)=O)S(=O)(=O)c1ccc(Br)cc1	-18	-17	104	105
COC(=O)c1ccc(COC(=O)C2Cc3ccccc3CN2C(=O)c2ccco2)cc1 (configuration not stated)	-17	-7	105	105
CC1NC(=S)N(C2CC2)C1=O (configuration not stated)	1	7	105	108
CN(C)c1ccc(C(CN)c2c[nH]c3ccccc23)cc1 (configuration not stated)	x	-5	102	99
O=C(Nc1ccccc1)OCc1cc(-c2ccc(Cl)cc2)oc1C(F)(F)F	3	1	98	87

High-throughput results: PubChem BioAssay, ICCB-Longwood Screening Facility, Harvard Medical School
